VACV Venus inh: qHTS for Stage-Specific Inhibitors of Vaccinia Orthopoxvirus: Venus Reporter Primary qHTS | Potency, µM (doses to about 36.5 µM), for inactives: at the highest dose activity change, negative = inhibition, usual class: inhibitors | Vaccinia virus Venus reporter expression, fluorescence | 0.46% of 330,000 active; active means well fitted inhibition curve with a large enough effect; inconclusive means small, poorly fitted or top-dose-only effect; inactive means no such curve, though single readings can be large or run the other way; tested in A549 cells; further: nearly all actives have a fitted effect of over 30% in size; inactives centre near -10
Vaccinia mCherry: qHTS for Stage-Specific Inhibitors of Vaccinia Orthopoxvirus: mCherry Reporter Primary qHTS; AID 720579, 2013; 0.63% of 310,000 active; Potency, µM (doses to about 36.5 µM), for inactives: top-dose activity change, negative = inhibition, usual class: inhibitors; Vaccinia virus mCherry reporter infection, fluorescence; about a quarter of the inactives have no number; active = well fitted inhibition curve with a large enough effect; inconclusive = small, poorly fitted or top-dose-only effect; inactive = no such curve, though single readings can be large or run the other way; tested in A549 cells; further: nearly all actives have a fitted effect of over 35% in size; inactives centre near -10
Active calls of the source: *; i = inactive; ? = inconclusive; . = not tested or not shown; & = joins results of further samples; [ ] = another dose, or the depositor's remark. On the % scale 0 is the no-effect control and ±100 the full control effect; potency means the concentration at half of the fitted maximal effect.

SMILES	VACV Venus inh	Vaccinia mCherry
O=C1CSC(c2cn(-c3ccccc3)nc2-c2cc3ccccc3o2)N1Cc1ccccc1 (configuration not stated)	-11%	-16%
CCOc1ccc(C2CC(c3ccc(OC)cc3)n3ncnc3N2)cc1 (configuration not stated)	-11%	-13%
CCCC(=O)Nc1ccc(NC(=O)c2ccco2)cn1	-7%	-16%
Cc1[nH]n(-c2ncc(-c3ccc(Cl)cc3)s2)c(=O)c1C(c1ccc(Cl)cc1)C(C#N)C#N (configuration not stated)	-11%	i
COC(=O)C1=C(C)N(CCc2c[nH]c3ccccc23)C(=O)C1	-9%	-19%
Cn1nc(C(=O)NNC(=O)c2ccccc2Br)c2ccccc2c1=O	-6%	i
COCC(=O)N1CCCc2ccccc21	-16%	-15%
Cc1ccc(C)c(NC(=O)CSc2nnc(NC(=O)Nc3ccccc3)s2)c1	-2%[7.34 µM]	-5%[7.34 µM]
C#CCOC(=O)C[N+](C)(C)C/C=C/c1ccccc1	-6%	4%
CSc1nc(C)nc2c1c(=O)n(C)c(=O)n2C	-10%	i
CCCCN(C(=O)c1ccncc1)c1c(N)n(CCC)c(=O)[nH]c1=O	-6%	-13%
COc1cccc(/C=C/C(=C2/C(=O)N(c3ccccc3)N=C2C)c2ccccc2)c1OC	-1%	-14%
O=C(N1CCOCC1)N1CCN(S(=O)(=O)N2CCOCC2)CC1	-11%	.
COC(=O)c1ccc(CNC(=O)CCC(=O)N2CCOCC2)cc1	-2%	i
O=C(Cc1ccccc1)Nc1nnc(-c2ccco2)o1	-13%	-1%
Cc1cc(C)cc(N2C(=O)CSC23C(=O)N(CC(=O)NCCc2ccccc2)c2ccccc23)c1 (configuration not stated)	-24%	-27%
O=C(OCC1CCCO1)c1ccc2c(c1)N(Cc1ccccc1Cl)C(=O)c1ccccc1S2(=O)=O (configuration not stated)	-8%	-6%
Cc1ccc(-n2nc(C)c3c(C)c(CCC(=O)NCc4ccco4)c(C)nc32)cc1	?	-15%
CCCNC(=O)c1cc(S(=O)(=O)N2CCc3ccccc32)cn1C	-24%	-4%
CCOc1ccc(-n2ccnc2SCC(=O)Nc2nc3ccc(C)cc3s2)cc1	-21%	-1%
COc1cccc(CCNC(=O)CC2C(=O)NCCN2CC(C)(C)C)c1 (configuration not stated)	-12%	i
Cc1cc(C)nc(/N=C(\N)N(Cc2ccccc2)Cc2ccccc2)n1	-24%	-13%
CN(C)S(=O)(=O)c1ccc(C(=O)Nc2ccc(-n3nncc3-c3ccccc3)cc2)cc1	-10%	0%
COc1ccc(CNC(=O)CCNS(=O)(=O)c2cccc3nsnc23)cc1	9%&8%	5%
Cc1ccc(NC(=O)COC(=O)Cn2cnc3c2c(=O)n(C)c(=O)n3C)cc1	-1%	-14%
COc1ccc(N(C(=O)CCl)C(C(=O)NCCc2ccccc2)c2cccs2)cc1Cl (configuration not stated)	10µM*	?
O=C(Oc1ccc(C(=S)N2CCOCC2)cc1)c1ccccc1	-19%	-3%
Cc1ccccc1CN1C(=O)C(O)(c2c[nH]c3ccccc23)c2cc(Cl)ccc21 (configuration not stated)	-13%	-14%
CC(C)Oc1ccc(C(CCN)C2CCCCC2)cc1 (configuration not stated)	?	13µM*
COC(=O)c1ccc2nc(-c3ccc(OC)c(OC)c3)c(Cc3ccc(OC)cc3C)n2c1	-11%	9%
CCOC(=O)C1(CCCc2ccccc2)CCN(S(C)(=O)=O)CC1	-6%	i
Cc1ccc(-n2ncc3c(N4CCCCC4)ncnc32)cc1Cl	-3%	-5%
CCOc1ccc(C(=S)N2CCOCC2)cc1OC	1%	.
Cc1ccc(N(C(=O)c2ccc(S(=O)(=O)N(C)C)cc2)C2C=CS(=O)(=O)C2)cc1 (configuration not stated)	-10%	i
Cc1sc2ncnc(NCCCO)c2c1C	-12%	-9%
COc1ccc(CNC(=O)COC(=O)c2ccc3ccccc3n2)cc1	-6%	-1%
O=C(CNC(=O)c1cccc(S(=O)(=O)N2CCc3ccccc32)c1)Nc1ccccc1Br	7%	?
COCCOC(=O)C1=C(C)NC2=C(C(=O)CC(C)(C)C2)C1c1cc2c(cc1Br)OCO2 (configuration not stated)	-7%	-12%
Cc1ccc(S(=O)(=O)NCc2nc3ccccc3[nH]2)cc1	-16%	6%
CCOC(=O)/C(C#N)=C\c1ccc2c(c1)OCO2	-7%	-11%
CCCOc1ccc(C(=O)N(Cc2ccc(Cl)cc2)Cc2ccco2)cc1	-13%	-14%
Cc1ccc(C2(C)NC(=O)N(CC(=O)N3CCN(S(=O)(=O)c4cccs4)CC3)C2=O)cc1 (configuration not stated)	-16%	-3%
Cc1cccc(C)c1OCC1CNC(=O)O1 (configuration not stated)	-5%	i
Nn1c(SCC(=O)Nc2ccc(F)c(F)c2)nnc1C1CCCCC1	-13%	-20%
O=C(Nc1cccc(C(F)(F)F)c1)C1(c2ccccc2)CC1	0%	-7%

Copied from above, 2 compounds:
SMILES	VACV Venus inh	Vaccinia mCherry
Nn1c(SCC(=O)Nc2ccc(F)c(F)c2)nnc1C1CCCCC1	-13%	-20%
O=C(Nc1cccc(C(F)(F)F)c1)C1(c2ccccc2)CC1	0%	-7%

Going on with the list.
SMILES	VACV Venus inh	Vaccinia mCherry
CNC(=O)c1c(NC(=O)CCS(=O)(=O)c2ccc(F)cc2)sc(C)c1C	-2%	-15%
CCN1CCN(c2nc(Nc3ccc(C)c(C)c3)nc(N)c2[N+](=O)[O-])CC1	-22%	?
Cc1ccc(CS(=O)(=O)Cc2ccc(C(=O)N3CCC4(CC3)OCCO4)o2)cc1	-8%	-9%
CN1CCN(C(=O)C2CCC(=O)N(Cc3cccc(C(F)(F)F)c3)C2)CC1 (configuration not stated)	-2%	-14%
CCc1cc2c(=O)[nH]c(-c3ccncc3)nc2s1	-13%	-27%
O=C(CCc1nc2ccccc2c(=O)[nH]1)OCc1nnc(-c2ccccc2)o1	-15%	.
C=CCSc1ncccc1C(=O)NCCc1ccc(Cl)cc1	-14%	i
COc1ccc2c(c1)c1c(c(=O)n(Cc3ccccc3)c(=O)n1Cc1cc(C)ccc1C)n2C	-13%	-5%
CCN1C(=O)C(C)S/C1=N\S(=O)(=O)c1ccc(F)cc1 (configuration not stated)	-8%	i
Cn1ccnc1SCC(=O)c1c(N)n(C)c(=O)n(C)c1=O	-1%	-9%
CCOC(=O)Cn1c(=O)n(CC2CCCO2)c2nc(-c3ccc(OC)cc3OC)nc(C(N)=O)c21 (configuration not stated)	?	?
CSCc1ccc(C(=O)NCc2ccc(C)cc2)cc1	-5%	-14%
O=C(COC(=O)c1cccnc1Cl)NC(=O)NC1CCCCC1	0%	i
Cc1cccc(NC(=O)Nc2ccc(Br)cc2)n1	-3%	-6%
Cc1nnc(SCc2nc3ccccc3s2)n1N	2%	3%
Cn1c(=O)c2ccccc2n2c(CCC(=O)N3CCN(c4cccc(Cl)c4)CC3)nnc12	-1%	-10%
CCOC(=O)c1c(NC(=O)Cn2cnc([N+](=O)[O-])n2)sc(C)c1C	-13%	-19%
C/[N+]([O-])=C\C1C(=O)CC(C)(C)CC1=O	-13%	-4%
O=S(=O)(CCc1ccncc1)c1ccc(Cl)cc1	-10%	11%
CCOC(=O)/C=C/[C@H]1CCc2cccc(Cl)c2O1	-14%	-11%
Cc1ccc(-c2nn(CCC(=O)Nc3ccc(Cl)c(Cl)c3)c(=O)c3ccccc23)cc1	-17%	-21%
COC(=O)Cc1cc(=O)n2[nH]cnc2n1	-6%	-8%[1.46 µM]
CC1CCN(C(=O)C(Cc2ccccc2)NS(=O)(=O)c2ccc3c(c2)oc(=O)n3C)CC1 (configuration not stated)	-5%	-23%
COn1c(-c2ccccc2)nc2ncccc21	-6%	i
Cc1ccc(NC(=O)c2cc(-c3cccc(O)c3)on2)cc1C	-11%	i
CC[C@H]1O[C@H](C)CC2=C1C(=O)OC(C)(C)O2	3%	42%[activator]
O=C(CCCN1C(=O)/C(=C\c2cccs2)SC1=S)Nc1ccc(O)cc1	?	?
O=C1CN=C(c2ccccc2F)c2cc(Cl)ccc2N1	-18%	-16%
Cc1cc(C)c(Cn2c3ccccc3c3cnn(CC(=O)NCc4cccs4)c(=O)c32)c(C)c1	-25%	-20%
Cc1ccc(CSc2nc3ccc(NC(=O)COc4ccccc4F)cc3s2)cc1	-19%	-24%
CC1Cc2cc(/C(O)=C3\C(=O)C(=O)N(Cc4cccnc4)C3c3ccccc3F)ccc2O1 (configuration not stated)	0%[7.34 µM]	i[7.34 µM]
COc1ccccc1N1CCN(S(=O)(=O)c2ccc(Cl)cc2)CC1	-10%	i
COc1ccc(OC)c(C2=NNC(=NCc3ccc4c(c3)OCO4)SC2)c1	-6%	-22%
O=C(Nc1ccc(F)cc1F)NC1CC1	-13%	-10%
O=S(=O)(NCC(c1cccnc1)N1CCN(c2ccc(F)cc2)CC1)c1cc(F)ccc1F (configuration not stated)	-6%	-17%
Cc1cc(C)n2c(Nc3ccc(Cl)cc3)c(-c3ccsc3)nc2n1	-4%	-8%
COc1cc(NC(=O)c2nc3ccccc3nc2C)cc(OC)c1OC	8%	-5%
CCOC(=O)C(=CNc1cccc(C)c1C)C(=O)OCC	0%	-27%
CCCNC(=O)C1(C)CCN(Cc2cc(C)n(C)n2)C1 (configuration not stated)	-8%	-4%
CC(C)CNC(=S)NC(=O)c1csc([N+](=O)[O-])c1	14%	-10%
CCc1ccccc1N(C)S(=O)(=O)c1ccc2[nH]cc(C(=O)N3CCc4ccccc43)c(=O)c2c1	?	-26%
CN1CCN(C2CCN(c3ccc(Nc4nnc(Cl)c(Nc5ccccc5S(C)(=O)=O)n4)c(OC(CF)CF)c3)CC2)CC1	?	?
C[C@H]1CN([C@@H](C)CO)C(=O)CCCn2nncc2CO[C@H]1CN(C)C(=O)Oc1ccc2ccccc2c1	-23%	-11%
Cc1ccc(C(=O)Nc2cnn(-c3ccc(C(=O)N(C)Cc4n[nH]c5c4CCCC5)cc3)c2)c(C)c1	?	?
CC(OC(=O)CCN=C1NS(=O)(=O)c2ccccc21)C(=O)N(C)C1CCCCC1 (configuration not stated)	-12%	-16%

Random excerpt: 4 entries already listed.
SMILES	VACV Venus inh	Vaccinia mCherry
COc1ccc(OC)c(C2=NNC(=NCc3ccc4c(c3)OCO4)SC2)c1	-6%	-22%
CCCNC(=O)C1(C)CCN(Cc2cc(C)n(C)n2)C1 (configuration not stated)	-8%	-4%
Cc1cc(C)n2c(Nc3ccc(Cl)cc3)c(-c3ccsc3)nc2n1	-4%	-8%
Cc1ccc(C(=O)Nc2cnn(-c3ccc(C(=O)N(C)Cc4n[nH]c5c4CCCC5)cc3)c2)c(C)c1	?	?

In the list so far, these have a cyano group.
SMILES	VACV Venus inh	Vaccinia mCherry
Cc1[nH]n(-c2ncc(-c3ccc(Cl)cc3)s2)c(=O)c1C(c1ccc(Cl)cc1)C(C#N)C#N (configuration not stated)	-11%	i
CCOC(=O)/C(C#N)=C\c1ccc2c(c1)OCO2	-7%	-11%

(continued)
SMILES	VACV Venus inh	Vaccinia mCherry
O=C(Nc1sc2c(c1C(=O)Nc1cccc(Cl)c1)CCCC2)c1cccs1	-29%	-26%
COc1ccc(S(=O)(=O)N2CCOCC2)cc1NC(=O)COC(=O)c1ccc(C)s1	1%	4%
COC(=O)c1cn(C)c2ccc(S(=O)(=O)N(C)C3CCCCC3)cc2c1=O	-10%	-4%
CSc1ccc(S(=O)(=O)NC2CCCCCC2)cc1	44%[activator]	-10%
Cc1ccc(S(=O)(=O)N2CCOC2CNC(=O)C(=O)NCc2ccccc2)cc1 (configuration not stated)	-14%	-28%
N/C(=N\c1nc2ccccc2o1)NC(=O)c1cccc(Br)c1	2%	i
COC(=O)Cn1c(CCS(=O)(=O)c2ccc(C)cc2)nc2ccccc21	-5%&-14%	-16%&17%
CC(CNC(=O)Cn1ncc2c3ccccc3n(Cc3cccc(Cl)c3)c2c1=O)c1ccccc1 (configuration not stated)	-26%	-20%
CC1=NN(c2nc(-c3ccc(C)cc3)cs2)C(=O)C1N=Nc1cccc(C)c1 (configuration not stated)	-1%	-13%
Cc1c(Cl)cccc1-n1c(CCC(=O)O)ccc1-c1cccs1	1%	-4%
O=C(Cn1cnc2c(nnn2-c2ccccc2)c1=O)NCCc1ccccc1	-9%	-10%
O=C(CSc1ncnc2sc3c(c12)CCC3)Nc1ccccc1C(=O)O	-21%	-12%
CCN(CC(=O)Nc1c(F)cccc1F)C(=O)c1ccc(Cl)c(S(=O)(=O)N2CCCC2)c1	-4%	-13%
Cc1c(N/C=C/C(=O)c2cccs2)c(=O)n(-c2ccccc2)n1C	-1%	?
COc1cccc(NC(=S)NNC(=O)c2c([N+](=O)[O-])c(C)nn2C)c1	2%	-10%

Molecules shown so far that have a CF3 group, in the order listed:
SMILES	VACV Venus inh	Vaccinia mCherry
O=C(Nc1cccc(C(F)(F)F)c1)C1(c2ccccc2)CC1	0%	-7%
CN1CCN(C(=O)C2CCC(=O)N(Cc3cccc(C(F)(F)F)c3)C2)CC1 (configuration not stated)	-2%	-14%

No enrichment for hits; overall some 0.87% were active at least once.
